Screens (PubChem BioAssay)
Yeast UUG start: modulators of start codon recognition fidelity in yeast; S. cerevisiae UUG-firefly luciferase reporter, luminescence/redox ratio; AID 602363; activity score, % at 18.7 µM; hit rate 0.13% among 350,000;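 active = replicate mean at a twofold rise or more, about +100% in these data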;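 note: firefly luciferase made from a UUG start codon reports start codon fidelity; reporter light over untreated wells divided by growth signal over untreated wells; some hits fall short of that in this replicate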
PABP polyA inh: blocks human PABP binding to poly(A) RNA; P11940; fluorescence polarization; inhibition, % at 35 µM; AID 2014; hit rate 1% among 290,000;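 active = 50% or more with normal probe brightness, or confirmed in later tests; inconclusive = above 50% with abnormal brightness, or retests that disagree; inactive = below 50% or failed in later tests; about a fifth of its hits are not listed in these tables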;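 note: calls also rest on retests at 20 µM and on dose response follow-up; controls were probe without protein and protein plus probe with vehicle; some compounds called inactive have numbers as strong as hits; many hits fall short of the cut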
eIF4H FP inh: inhibitors of RNA binding by human eIF4H. inhibition, % at 35 µM. AID 2012. eIF4H fluorescence polarization binding assay. hit rate 0.94% among 290,000;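 active = 50% or more with normal probe brightness, or confirmed in later tests; inconclusive = above 50% with abnormal brightness, or retests that disagree; inactive = below 50% or failed in later tests; about a fifth of its hits are not listed in these tables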;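 note: calls also rest on retests at 20 µM and on dose response follow-up; 0% = protein and probe with vehicle and 100% = probe without protein; strong numbers were not always called active; many hits fall short of the cut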
Rce1 inhib: inhibitors of yeast Ras-converting enzyme. Q03530. yeast membranes, quenched prenylated peptide cleavage fluorescence. hit rate 0.27% among 290,000. calls only;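 active = fall in fluorescence gain of 50% or more versus controls, with final raw signal at or below 3038400; inconclusive = same 50% fall but final raw signal above 3038400; inactive = fall in fluorescence gain under 50%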;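 note: plate controls were neutral control wells for no effect and wells lacking membranes for full effect; tested at 10 µM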
Target sequence (Q03530 whole entry, looked up): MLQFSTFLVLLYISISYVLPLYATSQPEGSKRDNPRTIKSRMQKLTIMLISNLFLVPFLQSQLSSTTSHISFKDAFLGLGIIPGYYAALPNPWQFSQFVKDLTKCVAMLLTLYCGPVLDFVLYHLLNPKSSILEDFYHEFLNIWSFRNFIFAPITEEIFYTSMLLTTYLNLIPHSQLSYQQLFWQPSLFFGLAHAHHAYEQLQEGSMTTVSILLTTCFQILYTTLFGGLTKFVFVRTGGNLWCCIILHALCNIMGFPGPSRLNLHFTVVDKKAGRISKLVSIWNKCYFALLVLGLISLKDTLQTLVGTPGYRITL
MT1-MMP act inh: MT1-MMP (human) activation inhibition; HT1080 RFP-PRO-GFP cells, GFP/RFP ratio fluorescence, overnight; percent of plate control window, DMSO zero; GFP/RFP ratio change, % at 20 µM; hit rate 0.061% among 360,000;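 active = GFP/RFP ratio change of at least 30% with cell ATP level not reduced by more than half and red fluorescence within 50% of control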; note: strong numbers were not always called active
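Test system: HT1080 cells expressing an RFP-PRO-GFP fluorescent reporter construct / Compound dosing: single-point 20 µM compound, 1% DMSO / Schedule: cells overnight before dosing, compound overnight, 37 °C, 5% CO2 / Evaluation: GFP/RFP fluorescence ratio / Control set: DMSO and RFP-L50D-GFP cell wells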
HIV Env fusion: inhibitors of HIV Env-mediated cell fusion; HeLa-JRFL Env/CEM21 cell fusion, luciferase; inhibition, % at 12.3 µM; hit rate 1.1% among 360,000; AID 651610;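 active = mean replicate inhibition score of at least 50 and every replicate individually at or above 50; inconclusive = only one of the two criteria met; inactive = mean below 50 and not all replicates reaching 50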;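 note: 0% = plate neutral controls and 100% = maraviroc near 300 nM; one replicate is shown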
CSC inhib: cancer stem cell inhibition; cancer stem cell-like cells viability, luminescence; inhibition, % at 7.5 µM; hit rate 1.1% among 300,000; AID 2717;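 active = mean at 75% or more and at least half the replicates too; inconclusive = mean and replicates disagree; tested in HMLE shEcad cells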;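 note: 0% = median of negative and 100% = median of positive control wells; the first replicate is given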
eIF4H FP inh retest: recorded beside eIF4H FP inh, whose call it bears; inhibition, %; compound at 20 µM; confirmation average;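 mean of two retest wells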
PABP polyA inh retest: also measured in PABP polyA inh; calls as there; inhibition, %; compound at 20 µM; confirmation repeats;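 mean of two retest wells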
MT1-MMP act inh RFP: also measured in MT1-MMP act inh; calls as there; RFP signal change, %; measured here: RFP expression control read;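 0 = vehicle wells; hits needed this value within 50% of zero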
* marks the source's active call; other numbers are inactive results; i = inactive; ? = inconclusive; . = no result given.

SMILES	Yeast UUG start	PABP polyA inh	eIF4H FP inh	Rce1 inhib	MT1-MMP act inh	MT1-MMP act inh RFP	HIV Env fusion	CSC inhib	others
Cc1cccc(-c2nnc(SCC(=O)C(C)(C)C)n2C)c1	-6	-8	-11	i	0	-3	-51	-4
CN(c1ccc(OCC(=O)N2CCN(c3ccc(F)cc3)CC2)cc1)S(=O)(=O)c1cccs1	-10	1	1	i	2	-19	32	-14
Cc1ccc(Nc2nc3nonc3[nH]c2=O)cc1C	-4	5	0	i	3	1	.	7
FC(F)(F)c1cccc(-c2nc(COc3ccc(Cl)cc3Cl)no2)c1	.	4	1	i	1	3	7	9
COc1ccc(Cc2nc3ccc(C(=O)NC(C)C)cc3o2)cc1	24	.	.	i	-4	-3	-21	-2
COc1ccc(-c2csc(/C(C#N)=C\c3ccc(OC)c([N+](=O)[O-])c3)n2)cc1	-8	5	?	i	-9	0	-4	1
Cc1ccc(-c2nc3c(c(=O)[nH]c(=O)n3CC(C)C)n2CC(C)C)cc1[N+](=O)[O-]	.	3	-6	i	-6	-12	10	-11
Cn1c(=O)n(C)c2cc(S(=O)(=O)N3CCCCC3)ccc21	.	7	-10	i	7	6	10	-14
Cc1cnc(C(=O)Nc2cc(F)ccc2C)cn1	.	-2	-6	i	1	3	-27	5
CC(C)(C)NC(=O)NC(=O)COC(=O)CNS(=O)(=O)/C=C/c1ccccc1	-10	-3	2	i	-1	4	16	-5
CCCCCCOc1ccc(N2C(=O)CC(S/C(N)=N/N=C(\C)c3cccs3)C2=O)cc1 (stereo not given)	-11	1	0	i	15	5	-17	7
O=C(COc1ccc(Br)cc1Cl)NC(=S)Nc1ccccn1	-33	-10	-11	i	0	1	-372	-1
CCC1CCCCN1S(=O)(=O)c1ccc(NC(=O)c2nc(S(C)(=O)=O)ncc2Cl)cc1 (stereo not given)	-1	3	-12	i	-3	-3	0	115*
CCOC(=O)c1cccc(NC(=O)CSc2nnc(C)n2Cc2ccccc2)c1	.	-9	-6	i	6	3	6	16
O=C(CSc1nc2ccccc2nc1SCC(=O)N1CCCCC1)N1CCCCC1	-13	6	1	i	5	-8	.	-8

A draw from above in order of SMILES length, low to high:
SMILES	Yeast UUG start	PABP polyA inh	eIF4H FP inh	Rce1 inhib	MT1-MMP act inh	MT1-MMP act inh RFP	HIV Env fusion	CSC inhib	others
Cc1cnc(C(=O)Nc2cc(F)ccc2C)cn1	.	-2	-6	i	1	3	-27	5
Cc1ccc(Nc2nc3nonc3[nH]c2=O)cc1C	-4	5	0	i	3	1	.	7
CCC1CCCCN1S(=O)(=O)c1ccc(NC(=O)c2nc(S(C)(=O)=O)ncc2Cl)cc1 (stereo not given)	-1	3	-12	i	-3	-3	0	115*

(more compounds)
SMILES	Yeast UUG start	PABP polyA inh	eIF4H FP inh	Rce1 inhib	MT1-MMP act inh	MT1-MMP act inh RFP	HIV Env fusion	CSC inhib	others
Cc1cc(C)n(-c2ccc(F)cc2)c(=O)c1C#N	.	-4	1	i	0	2	-19	-6
COc1ccc(-c2c(-c3ccc(OC)nc3)c3ccccc3n2C)cc1	-15	.	.	.	5	7	13	.
CCOc1ccc(CCNC(=O)CN2C(=O)NC3(CCCCC3C)C2=O)cc1OCC (stereo not given)	10	.	.	i	3	2	3	12
COc1ccc(C(=O)NC2CCN(S(=O)(=O)Cc3ccccc3)CC2)c(OC)c1	-13	-8	-3	i	0	-6	-45	.
COCCN(C(=O)COC(=O)CCCOc1ccccc1)c1c(N)n(Cc2ccccc2)c(=O)[nH]c1=O	.	.	.	i	4	-1	16	-10
CCCCn1c(N)c(N(CCOC)C(=O)COC(=O)COc2cc(C)ccc2Cl)c(=O)[nH]c1=O	9	.	.	i	0	0	17	-3
O=C1c2ccccc2C(=O)N1CCCc1cn(C[C@H]2CC[C@@H]([C@@H]3CC[C@H](Cn4cc(CCCN5C(=O)c6ccccc6C5=O)nn4)O3)O2)nn1	7	1	-14	i	3	2	13	-4
COc1ccc(C(C)C)cc1S(=O)(=O)NCC1CCCO1 (stereo not given)	-16	1	1	i	2	1	-9	.
CCCCCCn1c(=O)n2n(c1=O)[C@@H]1CN(S(=O)(=O)c3ccc(C)cc3)C[C@]1(O)[C@@H](OC(=O)NCc1ccc(OC)c(OC)c1)C2	10	.	.	.	4	-1	-46	.
CCCCNC(=O)c1cn(CC(C)C)c(=O)c2c1c1ccccc1n2C	-23	2	2	i	-5	-2	8	-2
Cc1ccc(NC(=S)N2CCc3[nH]c4ccccc4c3C2)cc1	-19	8	-1	i	3	-5	-4	3
CNc1nc(NC)nc(NNC(=O)c2ccccc2)n1	-16	.	.	.	-4	3	-13	.
Cc1ccc(S(=O)(=O)Nc2ccc(F)c(S(=O)(=O)N3CCOCC3)c2)cc1	-6	.	.	.	3	-4	-7	-11
Cc1ccc(NC(=O)CSCc2ccc(F)cc2)cc1	.	3	69	i	12	0	-1	8	eIF4H FP inh retest=-4;PABP polyA inh retest=-6
O=C1N/C(=C\c2ccc(N3CCOCC3)c(F)c2)C(=O)N1Cc1ccccc1	-14	-5	-3	i	-1	1	-156	52
CC(=O)c1ccc2c(c1)c(C#N)c1ccccc1[n+]2[O-]	4	?	?	i	-2	-1	4	.
COc1nc(-c2ccccc2)ccc1-c1noc(-c2ccco2)n1	.	13	-11	i	-3	3	-124	19
Cc1ccc2occ(/C=N/NC(=O)c3ccccc3Br)c(=O)c2c1	-25	-2	-4	i	-14	-7	18	0
COC(=O)[C@@H]1C[C@H]2CC[C@H](O)C[C@H]2N1Cc1ccccc1OC(=O)c1cccs1	-10	6	17	i	-1	6	-52	9
COc1ccc(COC(=O)NC2CCN(S(=O)(=O)c3ccc(OC)cc3)CC2)cc1	3	-2	5	i	-9	-15	56*	-11
COc1ccccc1C(=O)Nc1ccc(-c2nnn(CC(=O)N3CCOCC3)n2)cc1	-6	4	-2	i	2	-3	-83	-2
CNS(=O)(=O)c1cc(C(=O)O)ccc1OC	.	-8	-3	i	-1	4	-53	-8
CN(C)N1C(N)=C(C#N)C(c2ccccc2F)C2=C1CC(C)(C)CC2=O (stereo not given)	-7	10	8	i	-4	0	14	1
CCOC(=O)c1c(NC(=O)CN2CCCCC2)sc(CN(C)C)c1-c1ccccc1	.	13	2	i	-13	-15	31	8
Cc1cccc(C)c1NC(=O)C(c1ccccc1)N1CCC1=O (stereo not given)	-25	-14	-2	i	1	4	-67	0
Cc1ccc(NC(=O)C2CC(Cl)=CCC2C(=O)O)c([N+](=O)[O-])c1 (stereo not given)	.	0	-7	i	2	3	-22	1
CN1CCN(CC(O)Cn2c3ccccc3c3ccccc32)CC1 (stereo not given)	0	11	24	i	-1	0	?	12
COc1cc(-c2nnc(SCC(=O)NC3CCCC3)n2C)cc(OC)c1O	-9	7	0	i	1	-1	-10	-5
CC(C)C1N=C2c3ccccc3N=C(SCC(=O)NCCc3ccc(S(N)(=O)=O)cc3)N2C1=O (stereo not given)	-25	11	10	i	2	6	-128	-2
O=C(c1cc2ccccn2n1)N1CCN(Cc2ccccc2)CC1	-18	2	-2	i	-1	0	-7	-4

Some of these compounds in order of count of non-hydrogen atoms, falling.
SMILES	Yeast UUG start	PABP polyA inh	eIF4H FP inh	Rce1 inhib	MT1-MMP act inh	MT1-MMP act inh RFP	HIV Env fusion	CSC inhib	others
COCCN(C(=O)COC(=O)CCCOc1ccccc1)c1c(N)n(Cc2ccccc2)c(=O)[nH]c1=O	.	.	.	i	4	-1	16	-10
CC(C)C1N=C2c3ccccc3N=C(SCC(=O)NCCc3ccc(S(N)(=O)=O)cc3)N2C1=O (stereo not given)	-25	11	10	i	2	6	-128	-2
O=C(CSc1nc2ccccc2nc1SCC(=O)N1CCCCC1)N1CCCCC1	-13	6	1	i	5	-8	.	-8
COc1ccc(C(=O)NC2CCN(S(=O)(=O)Cc3ccccc3)CC2)c(OC)c1	-13	-8	-3	i	0	-6	-45	.
O=C1N/C(=C\c2ccc(N3CCOCC3)c(F)c2)C(=O)N1Cc1ccccc1	-14	-5	-3	i	-1	1	-156	52
COc1cc(-c2nnc(SCC(=O)NC3CCCC3)n2C)cc(OC)c1O	-9	7	0	i	1	-1	-10	-5
CCCCNC(=O)c1cn(CC(C)C)c(=O)c2c1c1ccccc1n2C	-23	2	2	i	-5	-2	8	-2
FC(F)(F)c1cccc(-c2nc(COc3ccc(Cl)cc3Cl)no2)c1	.	4	1	i	1	3	7	9
COc1nc(-c2ccccc2)ccc1-c1noc(-c2ccco2)n1	.	13	-11	i	-3	3	-124	19
O=C(COc1ccc(Br)cc1Cl)NC(=S)Nc1ccccn1	-33	-10	-11	i	0	1	-372	-1
Cc1cccc(-c2nnc(SCC(=O)C(C)(C)C)n2C)c1	-6	-8	-11	i	0	-3	-51	-4
CNc1nc(NC)nc(NNC(=O)c2ccccc2)n1	-16	.	.	.	-4	3	-13	.
Cc1ccc(Nc2nc3nonc3[nH]c2=O)cc1C	-4	5	0	i	3	1	.	7
Cc1cc(C)n(-c2ccc(F)cc2)c(=O)c1C#N	.	-4	1	i	0	2	-19	-6

Next part
SMILES	Yeast UUG start	PABP polyA inh	eIF4H FP inh	Rce1 inhib	MT1-MMP act inh	MT1-MMP act inh RFP	HIV Env fusion	CSC inhib	others
CC(=O)Nc1ccc(/C=C2\CCc3ccccc3C2=O)cc1	-8	-8	0	i	-43	-3	-18	18
Cc1cc(OCC(=O)Nc2ccc(S(=O)(=O)N3CCN(C)CC3)cc2)ccc1Cl	-12	8	3	i	7	3	-101	-3
CC1CCN(C(=O)c2ccc(CS(=O)(=O)Cc3ccccc3)cc2)CC1	-8	6	1	i	1	-14	22	-5
O=C(CNC(=O)c1ccc(Br)o1)OCC(=O)c1cccc([N+](=O)[O-])c1	.	1	2	i	4	8	12	8
COC(=O)c1nc(N)sc1-c1ccc(Cl)cc1	.	1	16	i	4	6	-22	4
COc1ccccc1C(=O)NC(=O)COC(=O)C1CC1	-33	.	.	i	-3	3	-4	-8
CC(=O)Nc1nnc(SCC(=O)NC(C)(C)C)s1	.	-1	6	i	-1	0	.	-13
COc1ccc(NC(=S)N(Cc2cccnc2)Cc2cc3cc(OC)c(OC)cc3[nH]c2=O)cc1	.	-4	-1	i	4	2	15	-15
O=C(NC12CC3CC(CC(C3)C1)C2)c1ccccc1O	5	-7	14	i	2	9	-20	32
O=C(C[n+]1ccc(C(=O)N/N=C/c2ccc(Br)cc2)cc1)c1ccccc1	-22	13	-3	i	9	0	.	-8
Oc1ccc(/C=N/N(Cc2ccccc2)c2ccccc2)c(O)c1O	.	-4	57	i	11	13	6	.	eIF4H FP inh retest=-3;PABP polyA inh retest=-3
Cc1ccccc1NC(=O)Cc1nc(-c2ccc3ccccc3c2)cs1	.	-12	-16	i	0	-10	7	-1
O=C(Nc1cccnc1)c1ccc(COc2cc(Cl)ccc2Cl)o1	-13	5	3	i	4	-14	.	72
Cc1nnc(NS(=O)(=O)c2ccc(N=Nc3ccc(N)nc3N)cc2)s1	9	.	.	.	17	3	4	.
Cc1cc(Nc2ccc(C)c(Cl)c2)nc(N2CCOCC2)n1	2	-4	-7	i	0	-3	24	33
CC(NC(=O)c1ccc(F)cc1)C(=O)NC1=NCCS1 (stereo not given)	.	3	1	i	4	7	6	21
CC(C)C(NC(=O)C12CC3CC(CC(C3)C1)C2)C(=O)O (stereo not given)	-16	0	-17	i	4	5	-5	-1
